Screening results (PubChem BioAssay)
A1 apoptosis 2 = blocks A1, raising caspase activity; MEF A1-2A-BIM cells, caspase-Glo luminescence, 3 h; percent of clofoctol response, DMSO zero; caspase activation, % (concentration not given with the values); 24,000 tested, under 10 active; AID 2465; in the data active = caspase activation above about 5.9%;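 also: wells of about 30 µL received 50 nL stock; the first replicate is given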
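Test system – A1-2A-BIM-expressing MEF cells · Input – 2500 cells/well · Medium – RPMI-1640 growth medium with 10% FBS · Compound dosing – 50 nL pinned compound · Timing – 3 h compound exposure at 37 °C · Technique – Caspase-Glo luminescence (DEVD substrate) · Evaluation – Caspase-3/7 activity from luminescence increase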
* = called active by the depositor. These rows are one share of the data; the hit share may differ from the screen's.

SMILES,A1 apoptosis 2
C[C@H](CO)N1C[C@H](C)[C@H](CN(C)S(=O)(=O)c2cn(C)cn2)Oc2ccc(NC(=O)Nc3ccccc3)cc2CC1=O,-0.1
C[C@H](CO)N1C[C@H](C)[C@@H](CN(C)Cc2ccc(C(=O)Nc3ccccc3N)cc2)Oc2ccc(N(C)C)cc2CC1=O,-0.8
COc1ccc(S(=O)(=O)Nc2ccc3c(c2)C(=O)N([C@H](C)CO)C[C@H](C)[C@@H](CN(C)S(=O)(=O)c2ccccc2)OCCCC[C@@H](C)O3)cc1,-0.7
CCO[C@H]1OC(C(=O)NCc2nc3ccccc3[nH]2)=C[C@@H](c2csc3ccccc23)[C@@H]1CCCO,2.4
COc1ccc(NC(=O)Nc2ccc3c(c2)C(=O)N([C@@H](C)CO)C[C@H](C)[C@@H](CN(C)C(=O)Nc2ccc(F)cc2)O3)cc1,0.6
COc1ccc(Br)c(/C=N/NC(=O)CCCCC(=O)NO)c1,-0.1
C[C@@H]1CN([C@H](C)CO)C(=O)c2cc(NC(=O)Nc3ccc(C(F)(F)F)cc3)ccc2O[C@@H](C)CCCCO[C@@H]1CN(C)S(=O)(=O)c1ccccc1,0.3
COc1ccc(NC(=O)Nc2ccc3c(c2)C(=O)N([C@H](C)CO)C[C@@H](C)[C@H](CN(C)S(=O)(=O)c2cccs2)OCCCC[C@H](C)O3)cc1,-0.2
C[C@@H]1CN([C@@H](C)CO)C(=O)c2cc(NC(=O)c3ccncc3)ccc2O[C@@H](C)CCCCO[C@H]1CN(C)S(=O)(=O)c1cn(C)cn1,-0.1
C[C@H]1CN([C@@H](C)CO)C(=O)CCCn2cc(nn2)CO[C@@H]1CN(C)C(=O)Nc1ccnc(N2CCOCC2)c1,0.1
COC(=O)C(CC#Cc1ccc2c(c1)[C@]1(C(=O)N2)[C@H](C(=O)O)[C@H]2C(=O)O[C@H](c3ccccc3)[C@H](c3ccccc3)N2[C@@H]1c1ccc(OCCO)cc1)C(=O)OC,0.1
C[C@H]1CCCCO[C@H](CN(C)S(=O)(=O)c2ccc(F)cc2)[C@@H](C)CN([C@@H](C)CO)C(=O)c2cc(NC(=O)C3CCCCC3)ccc2O1,2.0
C[C@@H]1CN([C@H](C)CO)C(=O)c2cc(NC(=O)CCCCCC(=O)Nc3ccccc3N)ccc2O[C@@H]1CN(C)S(=O)(=O)c1ccccc1,0.0
C[C@H]1CCCCO[C@@H](CN(C)CC2CCCCC2)[C@@H](C)CN([C@@H](C)CO)C(=O)c2cc(NS(C)(=O)=O)ccc2O1,0.9
C[C@@H]1CN([C@H](C)CO)C(=O)Cc2cc(NC(=O)CCCCCC(=O)Nc3ccccc3N)ccc2O[C@H]1CN(C)C(=O)NC1CCCCC1,0.9

Part of the list above, with each value named.
Structure: C[C@@H]1CN([C@H](C)CO)C(=O)c2cc(NC(=O)CCCCCC(=O)Nc3ccccc3N)ccc2O[C@@H]1CN(C)S(=O)(=O)c1ccccc1
  A1 apoptosis 2: 0.0
Structure: COc1ccc(NC(=O)Nc2ccc3c(c2)C(=O)N([C@@H](C)CO)C[C@H](C)[C@@H](CN(C)C(=O)Nc2ccc(F)cc2)O3)cc1
  A1 apoptosis 2: 0.6

Other entries:
SMILES,A1 apoptosis 2
C[C@@H]1CN([C@@H](C)CO)C(=O)CCCn2cc(nn2)CO[C@H]1CN(C)C(=O)Nc1cccc2ccccc12,0.0
COc1ccc(S(=O)(=O)N(C)C[C@H]2Oc3c(NS(=O)(=O)c4cn(C)cn4)cccc3C(=O)N([C@H](C)CO)C[C@H]2C)cc1,0.8
COc1ccc(S(=O)(=O)Nc2ccc3c(c2)C(=O)N([C@@H](C)CO)C[C@@H](C)[C@H](CN(C)Cc2ccc4c(c2)OCO4)OCCCC[C@@H](C)O3)cc1,0.8
C[C@H](CO)N1C[C@H](C)[C@@H](CN(C)C(=O)Nc2ccc3c(c2)OCO3)Oc2ccc(NS(=O)(=O)c3ccccc3)cc2CC1=O,-0.2
C[C@H]1CN([C@@H](C)CO)C(=O)CCCn2nncc2CO[C@H]1CN(C)C(=O)Nc1ccc(-c2cccs2)cc1,0.1
CNC[C@@H]1OCCCC[C@H](C)Oc2ccc(NS(=O)(=O)c3ccccc3)cc2C(=O)N([C@H](C)CO)C[C@@H]1C,-0.5
COc1ccc(S(=O)(=O)N(C)C[C@@H]2Oc3ccc(NC(=O)Cc4ccccc4)cc3CC(=O)N([C@H](C)CO)C[C@@H]2C)cc1,0.2
Cc1noc(C)c1NC(=O)Nc1ccc2c(c1)CC(=O)N([C@H](C)CO)C[C@@H](C)[C@@H](CN(C)CC1CC1)O2,-0.3
C[C@@H]1CN([C@H](C)CO)C(=O)c2cc(NS(C)(=O)=O)ccc2O[C@@H](C)CCCCO[C@@H]1CN(C)C(=O)NC1CCCCC1,0.5
C[C@@H]1CCCCO[C@H](CN(C)Cc2ccncc2)[C@H](C)CN([C@@H](C)CO)C(=O)c2cc(NC(=O)CCC(F)(F)F)ccc2O1,-0.1
Cc1ccccc1CN(C)C[C@H]1OCc2cnnn2CCCC(=O)N([C@H](C)CO)C[C@@H]1C,-0.4
CCCN(C)C[C@@H]1OCCCC[C@@H](C)Oc2ccc(NC(=O)Nc3ccc(F)cc3)cc2C(=O)N([C@H](C)CO)C[C@H]1C,-0.3
C[C@@H]1CN([C@@H](C)CO)C(=O)c2cc(NC(=O)c3ccncc3)ccc2O[C@@H](C)CCCCO[C@H]1CN(C)C(=O)c1ccccc1,1.0
COc1ccc(NC(=O)Nc2ccc3c(c2)CC(=O)N([C@@H](C)CO)C[C@@H](C)[C@@H](CN(C)S(=O)(=O)c2ccc(F)cc2)O3)cc1,-0.6
C[C@@H]1CN([C@@H](C)CO)C(=O)Cc2cc(NC(=O)Cc3cn(C)c4ccccc34)ccc2O[C@H]1CN(C)S(=O)(=O)c1ccc(F)cc1,0.9

The last five compounds of the part before lead into the next.
SMILES,A1 apoptosis 2
Cc1ccccc1CN(C)C[C@H]1OCc2cnnn2CCCC(=O)N([C@H](C)CO)C[C@@H]1C,-0.4
CCCN(C)C[C@@H]1OCCCC[C@@H](C)Oc2ccc(NC(=O)Nc3ccc(F)cc3)cc2C(=O)N([C@H](C)CO)C[C@H]1C,-0.3
C[C@@H]1CN([C@@H](C)CO)C(=O)c2cc(NC(=O)c3ccncc3)ccc2O[C@@H](C)CCCCO[C@H]1CN(C)C(=O)c1ccccc1,1.0
COc1ccc(NC(=O)Nc2ccc3c(c2)CC(=O)N([C@@H](C)CO)C[C@@H](C)[C@@H](CN(C)S(=O)(=O)c2ccc(F)cc2)O3)cc1,-0.6
C[C@@H]1CN([C@@H](C)CO)C(=O)Cc2cc(NC(=O)Cc3cn(C)c4ccccc34)ccc2O[C@H]1CN(C)S(=O)(=O)c1ccc(F)cc1,0.9
COC(=O)CCCCCCC(=O)N/N=C/c1ccccc1[N+](=O)[O-],-1.5
CC(C)NC(=O)Nc1ccc2c(c1)C(=O)N([C@@H](C)CO)C[C@@H](C)[C@@H](CN(C)S(=O)(=O)c1ccc(Cl)cc1)OCCCC[C@@H](C)O2,-0.2
C[C@@H]1CCCCO[C@H](CN(C)C(=O)Nc2ccccc2)[C@@H](C)CN([C@H](C)CO)C(=O)c2cc(N(C)C)ccc2O1,0.1
C[C@H]1CN([C@@H](C)CO)C(=O)c2cccc(NC(=O)Nc3ccc(C(F)(F)F)cc3)c2O[C@H]1CN(C)Cc1ccncc1,-0.6
COc1ccc(CN(C)C[C@H]2OCCCC[C@H](C)Oc3ccc(NC(=O)Nc4c(C)noc4C)cc3C(=O)N([C@H](C)CO)C[C@@H]2C)cc1,1.3
C[C@H]1CCCCO[C@H](CN(C)Cc2ccc(C(F)(F)F)cc2)[C@@H](C)CN([C@@H](C)CO)C(=O)c2cc(NC(=O)Cc3ccccc3)ccc2O1,1.1
C[C@@H]1CN([C@@H](C)CO)C(=O)c2cccc(NC(=O)c3ccc(-c4nccs4)cc3)c2O[C@H]1CN(C)Cc1ccc(C(=O)O)cc1,1.4
C[C@H]1CN([C@@H](C)CO)C(=O)Cc2cc(NS(=O)(=O)c3ccccc3)ccc2O[C@H]1CN(C)S(=O)(=O)c1ccccc1,0.6
C[C@H]1CN([C@@H](C)CO)C(=O)CCCn2nncc2CO[C@@H]1CN(C)S(=O)(=O)c1cccc(F)c1,-0.2
C[C@H](CO)N1C[C@H](C)[C@@H](CN(C)Cc2ccc3c(c2)OCO3)Oc2c(cccc2N(C)C)C1=O,0.5
C[C@H]1CCCCO[C@@H](CN(C)Cc2ccncc2)[C@@H](C)CN([C@@H](C)CO)C(=O)c2cc(NS(=O)(=O)c3cccs3)ccc2O1,0.1
C[C@H]1CN([C@@H](C)CO)C(=O)Cc2cc(NC(=O)Nc3ccc4c(c3)OCO4)ccc2O[C@H]1CN(C)S(=O)(=O)c1ccccc1,0.0
C[C@H]1CCCCO[C@@H](CN(C)S(=O)(=O)c2cn(C)cn2)[C@@H](C)CN([C@@H](C)CO)C(=O)c2cc(NC(=O)C3CCCCC3)ccc2O1,-0.9
Cc1noc(C)c1NC(=O)Nc1ccc2c(c1)C(=O)N([C@H](C)CO)C[C@H](C)[C@H](CN(C)C(=O)Nc1ccc3c(c1)OCO3)OCCCC[C@H](C)O2,-0.2
CC(C)NC(=O)Nc1ccc2c(c1)C(=O)N([C@H](C)CO)C[C@@H](C)[C@@H](CN(C)Cc1ccncc1)O2,1.1
COc1ccc(S(=O)(=O)Nc2cccc3c2O[C@@H](CN(C)S(=O)(=O)c2c(C)noc2C)[C@H](C)CN([C@@H](C)CO)C3=O)cc1,1.2
COc1ccc(NC(=O)N(C)C[C@@H]2Oc3ccc(NC(=O)Nc4cccc5ccccc45)cc3C(=O)N([C@@H](C)CO)C[C@H]2C)cc1,0.2
Cc1noc(C)c1NC(=O)Nc1ccc2c(c1)C(=O)N([C@@H](C)CO)C[C@@H](C)[C@@H](CN(C)C(=O)NC1CCCCC1)OCCCC[C@@H](C)O2,0.8
COc1ccc(CN(C)C[C@H]2Oc3ccc(NC(=O)C4CC4)cc3CC(=O)N([C@@H](C)CO)C[C@H]2C)cc1,-0.7
CC(=O)NCCCC[C@@H]1NC(=O)[C@@H]2C[C@H](C(=O)O)[C@H](c3ccc(O)cc3)N2C1=O,-0.1
C[C@@H]1CN([C@@H](C)CO)C(=O)c2cc(NC(=O)CCCN(C)C)ccc2O[C@H]1CN(C)Cc1ccc(C(=O)O)cc1,0.6
Cc1ccc(S(=O)(=O)N(C)C[C@H]2OCCCC[C@H](C)Oc3ccc(N(C)C)cc3C(=O)N([C@H](C)CO)C[C@H]2C)cc1,-1.2
C[C@@H]1CCCCO[C@@H](CN(C)S(C)(=O)=O)[C@@H](C)CN([C@H](C)CO)C(=O)c2cc(NC(=O)Nc3ccc(F)cc3)ccc2O1,0.9
C[C@H]1CN([C@@H](C)CO)C(=O)c2cccc(NC(=O)Nc3ccc(C(F)(F)F)cc3)c2O[C@H]1CN(C)Cc1ccc(Oc2ccccc2)cc1,-1.8
C[C@@H]1CN([C@@H](C)CO)C(=O)c2cc(NC(=O)c3ccncc3)ccc2O[C@@H](C)CCCCO[C@@H]1CN(C)C(=O)Nc1cccc2ccccc12,-0.9
C[C@@H]1CN([C@H](C)CO)C(=O)Cc2cc(NC(=O)Nc3ccccc3)ccc2O[C@@H]1CN(C)S(=O)(=O)c1ccccc1,2.1
C[C@H]1CN([C@@H](C)CO)C(=O)Cc2cc(NS(=O)(=O)c3cccs3)ccc2O[C@@H]1CN(C)Cc1ccc(C(=O)O)cc1,0.3
C[C@@H]1CN([C@@H](C)CO)C(=O)c2cc(NC(=O)c3ccccc3)ccc2O[C@@H](C)CCCCO[C@@H]1CN(C)S(=O)(=O)c1ccc(Cl)cc1,-0.7
C[C@@H]1CN([C@H](C)CO)C(=O)c2cc(NC(=O)c3ccncc3)ccc2O[C@@H](C)CCCCO[C@H]1CN(C)Cc1ccc(C(F)(F)F)cc1,-0.7
CCCN(C)C[C@@H]1OCCCC[C@@H](C)Oc2ccc(NS(=O)(=O)c3ccc(OC)cc3)cc2C(=O)N([C@@H](C)CO)C[C@@H]1C,-0.4
C[C@@H]1CCCCO[C@H](CN(C)S(=O)(=O)c2ccccc2)[C@@H](C)CN([C@H](C)CO)C(=O)c2cc(NC(=O)NC3CCCCC3)ccc2O1,-0.3
COc1ccc(NC(=O)N(C)C[C@H]2Oc3ccc(NS(=O)(=O)c4cccs4)cc3C(=O)N([C@H](C)CO)C[C@@H]2C)cc1,0.2
C[C@@H]1CN([C@@H](C)CO)C(=O)c2cccc(NC(=O)c3ccncc3)c2O[C@@H]1CN(C)C(=O)Nc1ccc(F)cc1,1.4
Cc1ccc(S(=O)(=O)N(C)C[C@H]2Oc3ccc(NC(=O)CCCN(C)C)cc3C(=O)N([C@@H](C)CO)C[C@@H]2C)cc1,-0.1
C[C@@H]1CN([C@H](C)CO)C(=O)c2cccc(NC(=O)c3ccncc3)c2O[C@H]1CN(C)C(=O)Nc1ccc(C(F)(F)F)cc1,-0.1
C[C@@H]1CCCCO[C@@H](CN(C)S(=O)(=O)c2cn(C)cn2)[C@@H](C)CN([C@H](C)CO)C(=O)c2cc(NS(C)(=O)=O)ccc2O1,-1.5
C[C@@H]1CN([C@@H](C)CO)C(=O)Cc2cc(NC(=O)NC3CCCCC3)ccc2O[C@@H]1CN(C)S(=O)(=O)c1ccccc1,2.8
C[C@H]1CN([C@@H](C)CO)C(=O)CCCn2cc(nn2)CO[C@@H]1CN(C)C(=O)Nc1ccccc1F,-1.2
C[C@H](CO)N1C[C@H](C)[C@H](CN(C)Cc2ccccc2)OCCCC[C@H](C)Oc2ccc(NS(=O)(=O)c3cccs3)cc2C1=O,0.1
